# Assay outcomes as filed in PubChem BioAssay.
# Ran importin: RanGTP/importin-beta interaction disruptors – biochemical, CFP-Ran/YFP-importin-beta FRET, RCC1, cell-free, primary screen (AID 434961); CFP-Ran/YFP-importin-beta FRET, cell-free; active compounds read high; inhibition, %; hit rate 0.2% among 7,700;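 active = more than half of the replicate wells above 15% inhibition; inconclusive = exactly half above it; inactive = fewer than half above it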;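 note: 0% = DMSO wells and 100% inhibition = RanGDP control wells on each plate; stock of unstated strength diluted about 400-fold; mean of two wells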
# Starred values were filed as active, the others as inactive; ? = inconclusive. Only part of the results is shown; count on the stated rates, not on these rows.
Ran importin	Structure
3.7	Cc1noc(C)c1S(=O)(=O)Nc1ccc2c(c1)C(=O)N([C@H](C)CO)C[C@@H](C)[C@@H](CN(C)C(=O)CCC(F)(F)F)OCCCC[C@H](C)O2
3.2	CC(C)NC(=O)N(C)C[C@@H]1Oc2ncc(C#CC(C)(C)O)cc2C(=O)N([C@H](C)CO)C[C@@H]1C
-2.1	COc1ccc(CN(C)C[C@H]2Oc3c(NS(=O)(=O)c4cccs4)cccc3C(=O)N([C@@H](C)CO)C[C@H]2C)cc1
-3.0	C[C@H](CO)N1C[C@H](C)[C@H](CN(C)C(=O)Nc2ccccc2)Oc2ccc(NS(C)(=O)=O)cc2CC1=O
1.6	C[C@@H]1CN([C@H](C)CO)C(=O)Cc2cc(NS(=O)(=O)c3ccc(Cl)cc3)ccc2O[C@H]1CN(C)CC1CCCCC1
-3.6	C[C@@H]1CN([C@H](C)CO)C(=O)c2cccc(NC(=O)C3CCOCC3)c2O[C@H]1CN(C)S(=O)(=O)c1cccs1
1.5	COc1ccc(S(=O)(=O)N(C)C[C@@H]2Oc3c(NC(=O)c4nc5ccccc5s4)cccc3C(=O)N([C@@H](C)CO)C[C@H]2C)cc1
-1.0	C[C@@H]1CN([C@@H](C)CO)C(=O)c2cc(NC(=O)Cc3ccccc3)ccc2O[C@@H](C)CCCCO[C@H]1CN(C)C(=O)c1ccncc1
-2.9	Cc1noc(C)c1S(=O)(=O)N(C)C[C@@H]1Oc2c(NS(C)(=O)=O)cccc2C(=O)N([C@@H](C)CO)C[C@H]1C
-3.6	C[C@H]1CN([C@@H](C)CO)C(=O)CCCn2cc(nn2)CO[C@@H]1CN(C)C(=O)Nc1ccccc1C(F)(F)F
0.4	Cc1noc(C)c1NC(=O)N(C)C[C@@H]1Oc2c(NC(=O)c3ccncc3)cccc2C(=O)N([C@H](C)CO)C[C@H]1C
0.3	C[C@@H]1CN([C@@H](C)CO)C(=O)c2cc(N(C)C)ccc2O[C@@H](C)CCCCO[C@H]1CN(C)Cc1ccncc1
-1.3	Cc1noc(C)c1S(=O)(=O)Nc1ccc2c(c1)CC(=O)N([C@H](C)CO)C[C@H](C)[C@@H](CN(C)C(=O)Nc1ccc(F)cc1)O2
2.6	Cc1noc(C)c1NC(=O)N(C)C[C@@H]1OCCCC[C@H](C)Oc2ccc(NC(=O)c3ccncc3)cc2C(=O)N([C@H](C)CO)C[C@H]1C
-3.0	C[C@@H]1CN([C@@H](C)CO)C(=O)c2cc(NC(=O)Cc3ccccc3)ccc2O[C@@H]1CN(C)C(=O)Nc1ccccc1
-4.3	Cc1ccc(S(=O)(=O)N(C)C[C@H]2Oc3ccc(NC(=O)C4CC4)cc3CC(=O)N([C@H](C)CO)C[C@H]2C)cc1
6.1	Cc1noc(C)c1NC(=O)N(C)C[C@@H]1Oc2c(cccc2N(C)C)C(=O)N([C@@H](C)CO)C[C@H]1C
?	C[C@@H]1CN([C@@H](C)CO)C(=O)c2cccc(NC(=O)c3ccncc3)c2O[C@@H]1CN(C)C(=O)Nc1ccc(C(F)(F)F)cc1
1.4	C[C@@H]1CN([C@@H](C)CO)C(=O)c2cccc(N(C)C)c2O[C@H]1CN(C)C(=O)NC1CCCCC1
2.1	C[C@@H]1CN([C@@H](C)CO)C(=O)CCCn2cc(nn2)CO[C@H]1CN(C)C(=O)Nc1ccccc1C(F)(F)F
-2.5	C[C@H](CO)N1C[C@H](C)[C@H](CN(C)Cc2ccccc2)OCCCC[C@H](C)Oc2ccc(NC(=O)CCC(F)(F)F)cc2C1=O
-6.1	C[C@@H]1CN([C@H](C)CO)C(=O)Cc2cc(NC(=O)C3CC3)ccc2O[C@H]1CN(C)C
-2.7	C[C@@H]1CCCCO[C@@H](CN(C)S(=O)(=O)c2cccs2)[C@H](C)CN([C@H](C)CO)C(=O)c2cc(NS(=O)(=O)c3cccs3)ccc2O1
5.8	Cc1cc(C(=O)Nc2cccc3c2O[C@@H](CN(C)S(=O)(=O)c2cn(C)cn2)[C@H](C)CN([C@@H](C)CO)C3=O)n(C)n1
0.4	C[C@@H]1CN([C@H](C)CO)C(=O)c2cc(NS(=O)(=O)c3ccccc3)ccc2O[C@@H]1CN(C)C(=O)NC1CCCCC1
-1.9	C[C@H](CO)N1C[C@H](C)[C@H](CN(C)S(=O)(=O)c2cccs2)OCCCC[C@H](C)Oc2ccc(NC(=O)CCCN(C)C)cc2C1=O
2.9	C[C@@H]1CN([C@H](C)CO)C(=O)c2cc(NC(=O)NC3CCCCC3)ccc2O[C@@H]1CN(C)S(=O)(=O)c1cn(C)cn1
-2.9	C[C@@H]1CCCCO[C@@H](CN(C)C)[C@H](C)CN([C@@H](C)CO)C(=O)c2cc(NC(=O)c3ccccc3)ccc2O1
4.5	C[C@@H]1CCCCO[C@@H](CN(C)C)[C@H](C)CN([C@@H](C)CO)C(=O)c2cc(NC(=O)CCCN(C)C)ccc2O1
3.3	Cc1cc(C(=O)Nc2cccc3c2O[C@H](CN(C)CC2CC2)[C@@H](C)CN([C@H](C)CO)C3=O)n(C)n1
2.8	C[C@@H]1CN([C@@H](C)CO)C(=O)CCCn2nncc2CO[C@@H]1CN(C)C(=O)c1ccccc1
-3.3	C[C@H](CO)N1C[C@H](C)[C@@H](CN(C)C(=O)Nc2ccc(C(F)(F)F)cc2)Oc2ccc(NC(=O)Nc3ccc4c(c3)OCO4)cc2C1=O
-1.5	COc1ccccc1NC(=O)N(C)C[C@@H]1OCc2cn(nn2)CCCC(=O)N([C@H](C)CO)C[C@@H]1C
-2.3	C[C@@H]1CN([C@@H](C)CO)C(=O)c2cccc(NC(=O)C3CCOCC3)c2O[C@@H]1CN(C)S(=O)(=O)c1ccc(Cl)cc1
2.6	C[C@H](CO)N1C[C@H](C)[C@H](CN(C)C(=O)NC2CCCCC2)Oc2ccc(NC(=O)Cn3cnnn3)cc2CC1=O
-0.1	COC(=O)N(C)C[C@@H]1OCc2cn(nn2)CCCC(=O)N([C@@H](C)CO)C[C@H]1C
-1.2	COC(=O)N(C)C[C@@H]1OCc2cnnn2CCCC(=O)N([C@H](C)CO)C[C@H]1C
4.4	C[C@@H]1CCCCO[C@@H](CN(C)C(=O)Nc2cccc3ccccc23)[C@H](C)CN([C@H](C)CO)C(=O)c2cc(NC(=O)c3ccncc3)ccc2O1
?	COc1ccc(NC(=O)N(C)C[C@@H]2Oc3ncc(-c4cccc(C(F)(F)F)c4)cc3C(=O)N([C@H](C)CO)C[C@@H]2C)cc1
1.5	C[C@@H]1CN([C@H](C)CO)C(=O)Cc2cc(NC(=O)NC3CCCCC3)ccc2O[C@H]1CN(C)S(=O)(=O)c1cn(C)cn1
2.9	C[C@@H]1CCCCO[C@H](CN(C)C(=O)c2ccccc2)[C@@H](C)CN([C@H](C)CO)C(=O)c2cc(NS(=O)(=O)c3ccccc3)ccc2O1
5.2	C[C@@H]1CN([C@@H](C)CO)C(=O)CCCn2cc(nn2)CO[C@@H]1CN(C)C(=O)CCCN(C)C
0.2	C[C@@H]1CN([C@@H](C)CO)C(=O)c2cc(NC(=O)Nc3ccc(F)cc3)ccc2O[C@H]1CN(C)S(=O)(=O)c1cn(C)cn1
0.7	C[C@H](CO)N1C[C@H](C)[C@H](CN(C)Cc2ccc(Cl)c(Cl)c2)Oc2c(NS(C)(=O)=O)cccc2C1=O
1.3	COc1ccc(CN(C)C[C@H]2Oc3c(NC(=O)Nc4cccc5ccccc45)cccc3C(=O)N([C@H](C)CO)C[C@H]2C)cc1
3.5	C[C@H](CO)N1C[C@H](C)[C@H](CN(C)C(=O)Nc2ccc3c(c2)OCO3)Oc2ncc(Br)cc2C1=O
-1.8	CC(C)NC(=O)Nc1ccc2c(c1)C(=O)N([C@H](C)CO)C[C@H](C)[C@H](CN(C)C)OCCCC[C@@H](C)O2
6.5	C[C@@H]1CN([C@@H](C)CO)C(=O)c2cccc(NC(=O)c3ccncc3)c2O[C@H]1CN(C)C(=O)NC1CCCCC1
1.6	C[C@@H]1CCCCO[C@@H](CN(C)C(=O)Nc2ccc3c(c2)OCO3)[C@H](C)CN([C@@H](C)CO)C(=O)c2cc(NS(C)(=O)=O)ccc2O1
-0.6	C[C@H]1CCCCO[C@H](CN(C)C(=O)c2ccncc2)[C@@H](C)CN([C@@H](C)CO)C(=O)c2cc(NC(=O)Cc3ccccc3)ccc2O1
0.4	Cc1noc(C)c1S(=O)(=O)N(C)C[C@H]1Oc2ccc(NC(=O)CCN3CCOCC3)cc2CC(=O)N([C@H](C)CO)C[C@H]1C
-1.3	C[C@@H]1CN([C@@H](C)CO)C(=O)c2cc(NC(=O)Nc3cccc4ccccc34)ccc2O[C@@H](C)CCCCO[C@H]1CN(C)C
?	CNC[C@H]1Oc2ccc(NC(=O)Nc3c(C)noc3C)cc2CC(=O)N([C@H](C)CO)C[C@H]1C
4.4	Cc1noc(C)c1S(=O)(=O)N(C)C[C@@H]1Oc2ccc(NS(=O)(=O)c3cn(C)cn3)cc2CC(=O)N([C@@H](C)CO)C[C@@H]1C
2.3	C[C@H]1CCCCO[C@@H](CN(C)C)[C@@H](C)CN([C@@H](C)CO)C(=O)c2cc(NS(=O)(=O)c3ccc(Cl)cc3)ccc2O1
-1.0	C[C@@H]1CN([C@@H](C)CO)C(=O)c2cc(N(C)C)ccc2O[C@@H](C)CCCCO[C@H]1CN(C)C(=O)Nc1cccc2ccccc12
-1.8	C[C@@H]1CN([C@H](C)CO)C(=O)CCCn2cc(nn2)CO[C@@H]1CN(C)C(=O)CCCN(C)C
-0.2	C[C@H](CO)N1C[C@H](C)[C@@H](CN(C)Cc2ccccc2)Oc2c(NC(=O)C3CC3)cccc2C1=O
0.6	C[C@@H]1CN([C@H](C)CO)C(=O)CCCn2cc(nn2)CO[C@@H]1CN(C)S(=O)(=O)c1ccc2c(c1)OCCCO2
-1.8	C[C@@H]1CCCCO[C@H](CN(C)C(=O)C2CCCCC2)[C@H](C)CN([C@H](C)CO)C(=O)c2cc(NS(=O)(=O)c3cccs3)ccc2O1

# No new results follow: ten of the compounds above.
Ran importin	Structure
2.9	C[C@@H]1CCCCO[C@H](CN(C)C(=O)c2ccccc2)[C@@H](C)CN([C@H](C)CO)C(=O)c2cc(NS(=O)(=O)c3ccccc3)ccc2O1
5.2	C[C@@H]1CN([C@@H](C)CO)C(=O)CCCn2cc(nn2)CO[C@@H]1CN(C)C(=O)CCCN(C)C
0.2	C[C@@H]1CN([C@@H](C)CO)C(=O)c2cc(NC(=O)Nc3ccc(F)cc3)ccc2O[C@H]1CN(C)S(=O)(=O)c1cn(C)cn1
0.7	C[C@H](CO)N1C[C@H](C)[C@H](CN(C)Cc2ccc(Cl)c(Cl)c2)Oc2c(NS(C)(=O)=O)cccc2C1=O
1.3	COc1ccc(CN(C)C[C@H]2Oc3c(NC(=O)Nc4cccc5ccccc45)cccc3C(=O)N([C@H](C)CO)C[C@H]2C)cc1
3.5	C[C@H](CO)N1C[C@H](C)[C@H](CN(C)C(=O)Nc2ccc3c(c2)OCO3)Oc2ncc(Br)cc2C1=O
-1.8	CC(C)NC(=O)Nc1ccc2c(c1)C(=O)N([C@H](C)CO)C[C@H](C)[C@H](CN(C)C)OCCCC[C@@H](C)O2
6.5	C[C@@H]1CN([C@@H](C)CO)C(=O)c2cccc(NC(=O)c3ccncc3)c2O[C@H]1CN(C)C(=O)NC1CCCCC1
1.6	C[C@@H]1CCCCO[C@@H](CN(C)C(=O)Nc2ccc3c(c2)OCO3)[C@H](C)CN([C@@H](C)CO)C(=O)c2cc(NS(C)(=O)=O)ccc2O1
-0.6	C[C@H]1CCCCO[C@H](CN(C)C(=O)c2ccncc2)[C@@H](C)CN([C@@H](C)CO)C(=O)c2cc(NC(=O)Cc3ccccc3)ccc2O1

# (cont.)
Ran importin	Structure
0.6	Cc1noc(C)c1NC(=O)N(C)C[C@H]1OCCCC[C@@H](C)Oc2ccc(NC(=O)c3ccncc3)cc2C(=O)N([C@H](C)CO)C[C@H]1C
-4.6	COc1ccc(CN(C)C[C@@H]2Oc3c(NC(=O)Nc4ccc(F)cc4)cccc3C(=O)N([C@@H](C)CO)C[C@H]2C)cc1
-0.3	C[C@@H]1CN([C@H](C)CO)C(=O)c2cc(NC(=O)CCCN(C)C)ccc2O[C@@H](C)CCCCO[C@@H]1CN(C)S(=O)(=O)c1ccccc1
0.6	Cc1noc(C)c1NC(=O)N(C)C[C@H]1Oc2ccc(NC(=O)Cc3ccccc3)cc2C(=O)N([C@@H](C)CO)C[C@H]1C
-1.6	C[C@H](CO)N1C[C@H](C)[C@H](CN(C)C(=O)Nc2cccc3ccccc23)Oc2ccc(NS(=O)(=O)c3ccccc3)cc2CC1=O
-2.9	C[C@@H]1CCCCO[C@@H](CN(C)C(=O)Nc2cccc3ccccc23)[C@H](C)CN([C@H](C)CO)C(=O)c2cc(N(C)C)ccc2O1
-3.4	C[C@@H]1CN([C@H](C)CO)C(=O)c2cccc(NC(=O)C3CCOCC3)c2O[C@@H]1CN(C)S(=O)(=O)c1ccc(Cl)cc1
-1.1	C[C@@H]1CN([C@@H](C)CO)C(=O)Cc2cc(NC(=O)CCCN(C)C)ccc2O[C@H]1CN(C)C
-0.5	C[C@@H]1CCCCO[C@H](CN(C)C(=O)CCCN(C)C)[C@@H](C)CN([C@@H](C)CO)C(=O)c2cc(N(C)C)ccc2O1
-2.8	C[C@H](CO)N1C[C@H](C)[C@H](CN(C)Cc2ccc(Oc3ccccc3)cc2)Oc2c(NC(=O)C3CCOCC3)cccc2C1=O
1.9	C[C@@H]1CN([C@H](C)CO)C(=O)Cc2cc(NC(=O)Nc3cccc4ccccc34)ccc2O[C@H]1CN(C)C(=O)NC1CCCCC1
6.2	C[C@H](CO)N1C[C@H](C)[C@@H](CN(C)C(=O)Nc2cccc3ccccc23)Oc2c(NC(=O)c3cnccn3)cccc2C1=O
-3.5	COc1ccc(S(=O)(=O)N(C)C[C@@H]2Oc3c(NS(=O)(=O)c4cccs4)cccc3C(=O)N([C@H](C)CO)C[C@@H]2C)cc1
-4.2	C[C@@H]1CN([C@H](C)CO)C(=O)Cc2cc(NC(=O)C3CC3)ccc2O[C@H]1CN(C)Cc1ccc2c(c1)OCO2
0.9	C[C@@H]1CN([C@H](C)CO)C(=O)Cc2cc(NC(=O)Nc3ccc4c(c3)OCO4)ccc2O[C@@H]1CN(C)C(=O)NC1CCCCC1
